# Assay outcomes from PubChem BioAssay.
# D2 PAM – Beta-Arrestin HTS for Positive Allosteric Modulators of the Human D2 Dopamine Receptor: Potentiators; D(2) dopamine receptor (Homo sapiens), P14416; 360,000 compounds, 0.23% hits; potentiation, % (no concentration beside the values); DiscoveRx D2 beta-arrestin cells, luminescence, 90 min; 100% = 57 uM dopamine signal; active = potentiation of 50% or more; inconclusive = 30% to 50%; inactive = 30% or less;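 note: compound concentration not given in the record; tested on top of an EC20 dose of dopamine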
#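 D2 cells co-treated with compound plus 50 nM dopamine (EC20) for 90 min at 37 deg C to detect potentiation. Beta-arrestin recruitment was read as enzyme-fragment luminescence after 1 h at ambient temperature. Full response was set by 57 uM dopamine.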
# PINK1 expr mod – A Quantitative High throughput Screen to Identify Chemical Modulators of PINK1 Expression | PINK1 immunofluorescence, high-content cytometry, 24 h | Potency, µM (doses to about 76.6 µM), for inactives: at the top dose activation (PINK1 increase), actives largely listed as activators | 410,000 compounds, 0.2% hits | AID 624263, 2012; active = well fitted activation curve with a large enough effect; inconclusive = small, poorly fitted or top-dose-only effect; inactive = flat fitted curve, though single readings scatter; cell line not stated here;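 note: potency is the fitted concentration of half-maximal effect; % of control where 0% means no effect; nearly all actives have a fitted effect of over 65% in size; a mitochondrial uncoupler was the plate control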
#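 A stable cell line was treated with compounds at 5 concentrations for 24 hours, with CCCP as control. PINK1 levels and mitochondrial localization were measured by immunofluorescence with mitochondrial, cell and nuclear markers after fixation, read by laser-scanning cytometry.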
# TRPML1 blocker – qHTS for Inhibitors of the Human Mucolipin Transient Receptor Potential 1 (TRPML1). TRPML1-inducible cells, Ca2+ dye fluorescence, FDSS; stronger effect = lower value; inhibition of EC80 agonist-evoked calcium signal. 390,000 compounds, 0.02% hits. activity change, negative = inhibition, % (concentration not given with the values). Mucolipin-1 (Homo sapiens), Q9GZU1; in the data active means activity change below about -50%; inconclusive means about -30% to -50%; inactive means above about -30%;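 note: stimulus is agonist 54-4 at its EC80 concentration; % is set by controls: 0 for no effect and ±100 for the full control effect; the text of the record puts the active cut at -80%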
#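 TRPML1-DL cells, Tet-induced overnight (~16 h, 37 °C) at 1,500 cells/well, were loaded with Ca8 no-wash dye plus quencher for 45-90 min at room temperature. Compounds were pinned during FDSS kinetic reading; agonist 54-4 at EC80 (4 uM final) then added.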
# D2 agonist – Beta-Arrestin HTS for Positive Allosteric Modulators of the Human D2 Dopamine Receptor: Agonists. 360,000 compounds, 0.084% hits. D(2) dopamine receptor (Homo sapiens), P14416. DiscoveRx PathHunter D2 beta-arrestin, luminescence, 90 min; 100% = 57 uM dopamine signal. activation, % (no concentration beside the values); in the data active = activation above about 40%; inconclusive = about 15% to 40%; inactive = below about 15%; note: compound concentration not given in the record; the text of the record calls up to 30% inactive
#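 DiscoveRx PathHunter D2 beta-arrestin cells (2,100/well) attached overnight, then compound-stimulated 90 min at 37 C in HBSS/10 mM HEPES/0.1% Tween-20 buffer; beta-galactosidase complementation read by luminescence after 1 h at ambient temperature. Dopamine 57 uM final (EC100) as control.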
# TRPML1 agonist – qHTS for Agonists of the Human Mucolipin Transient Receptor Potential 1 (TRPML1). TRPML1-expressing cells, Ca2+ dye fluorescence, FDSS; host cell line not named in the record; reference of the full effect not given here. AID 624414, 2012. Mucolipin-1 (Homo sapiens), Q9GZU1. activation, % (no concentration beside the values). 410,000 compounds, 0.12% hits; in the data active = activation above about 50%; inconclusive = about 30% to 50%; inactive = below about 30%; note: 0% is about no effect; the text of the record puts the active cut at 80%
#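 Tetracycline-induced TRPML1-DL cells are seeded and incubated overnight before loading with a no-wash Ca2+ dye and quencher. Agonist activity is taken from the 110 s fluorescence read following compound pin-transfer on an FDSS, before EC80 54-4 challenge.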
# Six1-Eya2 inh – qHTS Assay for Inhibitors of the Six1/Eya2 Interaction. Homeobox protein SIX1 (Homo sapiens) + Protein phosphatase EYA2 (Homo sapiens), …. AlphaScreen GST-Six1/His-Eya2 binding, biochemical; stronger effect = lower value; control for the full effect not named in the record. activity change, % (test concentration not listed). 360,000 compounds, 0.56% hits. AID 651725, 2012; in the data active = activity change below about -65%; inconclusive = about -30% to -65%; inactive = above about -30%; note: % is set by controls: 0 for no effect and ±100 for the full control effect
# Target sequence (O00167 whole entry, looked up): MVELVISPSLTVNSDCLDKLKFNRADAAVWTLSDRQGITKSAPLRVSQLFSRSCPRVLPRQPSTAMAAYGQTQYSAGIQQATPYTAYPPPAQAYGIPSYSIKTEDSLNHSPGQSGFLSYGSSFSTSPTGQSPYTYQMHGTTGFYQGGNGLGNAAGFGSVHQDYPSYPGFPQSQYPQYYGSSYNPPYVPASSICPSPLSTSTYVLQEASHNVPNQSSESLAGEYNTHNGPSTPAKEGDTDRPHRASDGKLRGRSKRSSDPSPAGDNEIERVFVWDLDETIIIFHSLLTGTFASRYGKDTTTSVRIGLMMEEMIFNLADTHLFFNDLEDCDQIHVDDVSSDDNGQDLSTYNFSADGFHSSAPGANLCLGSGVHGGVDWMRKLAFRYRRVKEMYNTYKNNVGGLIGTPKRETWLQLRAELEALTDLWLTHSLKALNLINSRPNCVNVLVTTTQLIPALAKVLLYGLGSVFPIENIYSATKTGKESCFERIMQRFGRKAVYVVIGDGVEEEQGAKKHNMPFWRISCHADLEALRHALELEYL
# Target sequence (Q15475 whole entry, looked up): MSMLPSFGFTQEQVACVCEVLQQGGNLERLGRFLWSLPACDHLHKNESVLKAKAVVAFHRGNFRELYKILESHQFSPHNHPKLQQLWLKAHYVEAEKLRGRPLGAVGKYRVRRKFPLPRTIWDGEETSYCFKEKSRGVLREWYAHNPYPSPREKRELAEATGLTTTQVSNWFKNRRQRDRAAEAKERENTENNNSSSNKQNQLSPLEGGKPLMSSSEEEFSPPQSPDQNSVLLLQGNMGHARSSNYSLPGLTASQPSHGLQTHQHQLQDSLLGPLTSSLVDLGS
#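 AlphaScreen with GST-Six1 and His-Eya2 (5X mix: 250 nM and 500 nM), glutathione donor and nickel acceptor beads; buffer 50 mM Tris pH 8.0, 300 mM NaCl, 1 mM TCEP; 1 h at 37 C in the dark.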
# * marks the source's active call; other numbers are inactive results; ? = inconclusive; . = no result given; [ ] = dose if it differs, or a comment.
# Values run as follows: D2 PAM	PINK1 expr mod	TRPML1 blocker	D2 agonist	TRPML1 agonist	Six1-Eya2 inh
COc1ccc(NS(=O)(=O)c2ccc(S(=O)(=O)N3CCCC3)cc2)cc1Cl
  -9	-3.2%	9	-1.3	1.3	3
COc1ccc(CNS(=O)(=O)c2ccc3c(c2)NC(=O)C(C)S3)cc1 (configuration not stated)
  -9	1.0%	2	-0.9	1.0	-13
COc1cc(OC)cc(C(=O)Oc2ccc(/C=N/Nc3nc4ccccc4s3)cc2OC)c1
  15	4.2%	23	6.3	0.8	-20
CC1=CC(C)(C)Nc2ccc(Cc3ccc4c(c3)C(C)=CC(C)(C)N4)cc21
  15	1.7%	-12	7.3	3.6	?
COc1cccc(/C=C/C(=C2\C(=O)N(c3ccccc3)N=C2C)c2ccc(Br)cc2)c1OC
  -3	3.3%	5	-2.0	-0.2	-4
CC(=O)c1c(C)n(-c2ccc(C)cc2)c2ccc(O)cc12
  1	0.3%	12	-6.5	0.2	0
CCCCCSc1nc2c(c(=O)[nH]c(=O)n2C)n1CCc1ccccc1
  -6	1.9%	30	-4.8	1.4	7
CC1(C)CC(=O)C(C(C2=C(O)CC(C)(C)CC2=O)c2cccnc2)C(=O)C1 (configuration not stated)
  -1	3.0%	2	0.4	-0.5	2
COc1ccccc1-n1nnnc1SCC(=O)NC1CCCCC1
  -1	-0.2%	9	-4.0	0.0	-3
Cc1ccc(-c2cc(C(=O)Nc3nn[nH]n3)c3ccccc3n2)c(C)c1
  -5	?	29	-0.4	0.5	-25
CCOC(=O)C(C)(C)N(Cc1cccc(C)c1)S(=O)(=O)c1cccc([N+](=O)[O-])c1
  -14	2.2%	24	3.2	1.2	-23
CC1CCN(c2ccc(C(F)(F)F)cc2N)CC1
  -8	11%	-8	-0.8	-0.3	1
Cn1nc(C(=O)NCc2ccc(F)cc2)c2c1-c1ccccc1S(=O)(=O)C2
  -6	-0.9%	3	-0.7	-0.9	-28
CCOc1ccc(-n2c(SCC(=O)O)nc3sc4c(c3c2=O)CCCC4)cc1
  -1	1.1%	2	4.0	-0.3	0
O=C(Nc1ccc(O)cc1)/C(=C\c1ccncc1)NC(=O)c1ccccc1
  4	-0.5%	19	-0.2	-1.3	6
O=C(Nc1cccc(F)c1)N1CCC(c2ccccc2)CC1
  -17	0.3%	.	-4.9	.	0
O=C(O)c1cccc(N2CCCC2)c1
  0	0.9%	-18	-3.8	0.2	-3
CC1(C)CC(=O)C=C(c2ccc(COC(=O)c3cccc(C(F)(F)F)c3)cc2)C1=O
  0	0.7%	9	-9.5	-0.1	-4
O=C(Nc1nc2ccc(Cl)cc2s1)C1CCCO1 (configuration not stated)
  -3	-1.9%	1	-4.5	-0.9	-9
CCCNC(=O)c1onc(CSc2ccc(F)cc2)c1C(=O)NCCOC
  -12	0.6%	5	-2.7	0.1	1
CCOC(=O)c1[nH]cnc1C(=O)Nc1ccc(C)cc1
  -16	1.2%	-5	-4.7	-0.7	-3
C=C(C)COc1ccc2oc(C)c(C(=O)OCCOC)c2c1
  3	13%[38.3 µM]	0	2.6	-0.4	44
CC1(c2nnc(-c3cccc(Cl)c3)o2)CC(c2cccnc2)=NO1 (configuration not stated)
  -7	0.9%	39	-1.9	-0.6	-12
Cn1nccc1NC(=O)Nc1ccc(Cl)cc1
  -1	0.2%	-8	-1.1	0.9	2
CCn1c(CC(=O)Nc2ccc(C)cc2)nnc1SCC(=O)NCc1ccccc1
  -9	-2.8%	1	-6.0	0.3	-2
Fc1ccc(Nc2nc(SCc3ccccc3Cl)nc3ccccc23)cc1
  .	13%	13	.	2.2	.
COc1ccc(/C(C)=N/NC(=O)CNC(=O)C2COc3ccccc3O2)c(OC)c1 (configuration not stated)
  -15	1.9%	9	-3.9	0.4	-28
Cc1cccc(Nc2nnc(SCC(=O)Nc3ccc(C(=O)O)cc3)s2)c1
  -2	0.9%	18	2.7	-1.1	-7
COc1ccc(N2CCN(C(=O)c3ccc(CSc4ccccc4)cc3)CC2)cc1
  -18	-0.6%	19	-5.6	-0.1	0
Cc1ccc(NC(=O)CCCSc2nc3ccccc3[nH]2)cc1
  -6	1.8%	-9	0.2	0.6	0
COc1cc(F)ccc1-c1csc(C(NC(C)=O)c2ccccc2)n1 (configuration not stated)
  -3	1.7%	.	-6.4	-1.1	1
COc1ccc(-c2nc3sc(CCNS(=O)(=O)c4c(C)cc(C)cc4C)c(C)n3n2)cc1
  .	3.3%	41	.	1.9	.
O=C(COC(=O)C1C2CC3OC(=O)C1C3C2)Nc1ccccc1 (configuration not stated)
  -1	0.0%	-14	1.8	0.7	-1
O=C(c1cccc(Cl)c1)N1CCN(c2ccccn2)CC1
  -2	0.4%	-6	-3.0	-0.8	6
O=C(NNC(=O)c1ccc2c(=O)n3c(nc2c1)CCC3)c1cccc(Cl)c1
  11	-0.7%	-9	-3.3	0.0	-15
CN1OC[C@@H]2CN(Cc3cc(Cl)cc(Cl)c3)[C@H](c3cccc(-c4ccccc4)c3)C[C@@H]21
  -6	0.0%	60	-1.9	1.5	-4
COc1ccccc1N1C(=O)CC(c2ccccc2)CC1=O
  -13	-0.9%	2	-3.6	-1.0	3
COc1ccccc1Nc1nc(-c2cccc([N+](=O)[O-])c2)cs1
  -20	7.3%	-4	-5.0	-0.8	-18
COc1cccc(NC(=O)CN2C(=O)NC3(CCc4ccccc43)C2=O)c1 (configuration not stated)
  1	1.2%	2	-0.7	-0.3	3
CCCCC(=O)Nc1ccc(C(=O)Nc2ccc(S(=O)(=O)N3CCCC3)cc2)cc1
  0	17%[38.3 µM]	-1	-0.4	-0.3	0
COc1ccc(F)cc1S(=O)(=O)n1cnc2ccccc21
  -1	0.0%	-19	-0.6	-0.1	7
Cn1c(=O)c2c(nc(NCC(O)CO)n2CCc2ccccc2)n(C)c1=O (configuration not stated)
  -10	0.2%	3	-5.9	0.6	-9
CC[C@]12c3[nH]c4ccc(Cl)cc4c3CCN1C(=O)[C@@H](CC(=O)NCc1cccc(C(F)(F)F)c1)C[C@@H]2C(=O)N1CCN(C(=O)C2CC2)CC1
  -5	?	2	-1.4	1.7	0
CC1(C)Cc2c(C#N)c(NCCCO)nc(-c3ccccc3)c2CO1
  -5	1.3%	-4	2.5	-1.0	-5
Cc1cc(C)n(CCCNC(=O)c2ccc(C)o2)n1
  -3	0.7%	-2	-4.0	-0.2	-2
CCN(CC)C(=O)[C@H]1C[C@H](CC(=O)NCCCOC)C(=O)N2CCc3c([nH]c4cc(-c5ccco5)ccc34)[C@]12C
  .	-0.6%	12	0.2	0.4	-12
CC(C)C(=O)OCC(=O)Nc1ccc2c(c1)CCC2
  -10	-0.8%	13	-2.2	-0.6	-1
Cc1ccc2c(c1)C(=O)OC(C(=O)Nc1ccc(C(=O)O)cc1)C2 (configuration not stated)
  .	-1.3%	-2	.	1.8	.
Cc1nn(-c2ccc(Cl)cc2)c(NC(=O)C(C)C)c(-c2ccccc2)c1=O
  19	0.4%	2	-0.5	4.5	0
CCOC(=O)c1ccc(N2C(=O)c3[nH]nc(-c4ccc(C)cc4)c3C2c2ccc(O)cc2)cc1 (configuration not stated)
  .	-0.4%	-6	.	0.6	.
CCOC(=O)C1CCCN(c2c(NCC3CCCN3CC)c(=O)c2=O)C1 (configuration not stated)
  -12	-0.3%	11	-4.1	0.1	5
NC(=S)NC1CC2C=CC1C2 (configuration not stated)
  -5	2.4%	-2	-4.6	1.8	4
Cc1cccc(C(=O)Nc2cccc(C(=O)N/N=C/c3ccccn3)c2)c1
  -12	1.0%	-16	4.7	0.5	?
Cn1nccc1C(=O)Nc1cccc(S(=O)(=O)N2CCOCC2)c1
  -5	0.5%	15	-1.6	0.2	1
Cc1ccc(N2CN(S(=O)(=O)c3cccc([N+](=O)[O-])c3)c3nc4ccccc4nc32)cc1
  4	2.3%	16	-1.3	-0.5	19
CCN(CC)CCCNC(=O)C1CCN(C(=O)c2oc3cc4sc(N(C)C)nc4cc3c2C)CC1
  -6	-0.1%	-12	0.6	-0.4	-13
Cc1cc(C)c(NC(=O)CN2C(=O)c3cccnc3Oc3ccc(Cl)cc32)c(C)c1
  .	1.0%	-10	.	0.9	.
CCOC(=O)C(CC)Sc1nnc2c3cc(C)ccc3n(C)c2n1 (configuration not stated)
  -16	0.4%	6	-4.4	1.5	-23
CCC(C)N(C(=O)CSc1nc(C)c(C)c(C)c1C#N)C1CCS(=O)(=O)C1 (configuration not stated)
  7	1.6%	6	-1.8	0.2	-7
CCC(C(=O)N1CCc2ccccc2C1)n1nc(C)n2c(cc3occc32)c1=O (configuration not stated)
  -25	3.1%	14	-3.0	0.4	0

# New compounds follow.
# Values run as follows: D2 PAM	PINK1 expr mod	TRPML1 blocker	D2 agonist	TRPML1 agonist	Six1-Eya2 inh
O=S1(=O)CCN(Cc2ccccc2)CC1
  -1	2.4%	42	-2.0	0.0	0
COc1ccccc1CC(=O)Nc1ccc(Cl)cc1C(=O)O
  7	0.6%	1	0.7	-0.9	12
CCOC(=O)CN1NC2(CCCCCCC2)NC1=S
  -6	-1.1%	-12	-4.4	-0.4	10
COc1ccc(NC(=O)COC(=O)CCSc2ccccc2)cc1OC
  -3	0.2%	-13	1.4	-0.7	-1
N#CN=CN1CC=C(c2ccc(Cl)cc2)CC1
  -8	-2.0%	-4	-7.2	0.1	4
CCCN1CCN(S(=O)(=O)c2ccc(-n3cnnn3)cc2)CC1
  3	-1.4%	-3	3.6	-0.3	1
C#CCOCCOCCOCCNc1nc(N2CCN(C(=O)C([C@@H](C)CC)n3cc(C(N)COC(=O)C(F)(F)F)nn3)CC2)nc(N2CCN(C(=O)[C@H](CCC(=O)O)n3cc(C(N)CC(C)C)nn3)CC2)n1 (some centres not stated)
  -6	0.2%	-17	-3.5	-0.2	-5
CCOC(=O)c1cnc2ccc(C)cc2c1OCc1cc(F)cc(F)c1
  4	0.1%	-18	-2.8	-0.5	-2
